Assay outcomes deposited in PubChem BioAssay by several laboratories.
AF4-AF9 inh: blocks AF4 peptide binding to human AF9; P42568; inhibition, % at 10 µM; AlphaScreen, biotin-AF4 peptide binding to FLAG-AF9; hit rate 0.47% among 350,000; AID 651704;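 active = every replicate reaching a set inhibition limit, whatever the replicate mean, cut at about 25% in these data; inconclusive = mean inhibition reaches that limit but some replicates miss it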;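 also: 0% = plate neutral control median and 100% = total signal loss; the record names both 10 and 1 µM as test concentration; the first replicate is given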
Target sequence (P42568 whole entry, looked up): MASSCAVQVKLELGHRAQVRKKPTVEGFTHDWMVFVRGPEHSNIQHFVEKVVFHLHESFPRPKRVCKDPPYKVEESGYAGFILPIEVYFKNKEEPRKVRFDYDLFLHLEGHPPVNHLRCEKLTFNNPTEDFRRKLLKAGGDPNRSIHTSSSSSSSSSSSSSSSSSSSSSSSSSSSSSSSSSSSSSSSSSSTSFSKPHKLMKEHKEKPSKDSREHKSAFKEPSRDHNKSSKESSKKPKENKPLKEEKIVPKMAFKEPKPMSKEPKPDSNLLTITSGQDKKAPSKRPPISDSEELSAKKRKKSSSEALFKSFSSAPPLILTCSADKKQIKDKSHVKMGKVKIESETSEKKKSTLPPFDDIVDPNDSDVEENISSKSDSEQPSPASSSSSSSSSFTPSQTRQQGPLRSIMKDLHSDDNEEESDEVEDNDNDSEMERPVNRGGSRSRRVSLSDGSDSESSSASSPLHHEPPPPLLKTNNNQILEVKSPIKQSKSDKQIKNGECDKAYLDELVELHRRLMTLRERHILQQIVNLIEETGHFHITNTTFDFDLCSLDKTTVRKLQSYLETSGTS
Vif TR-FRET: inhibitors of Vif binding to APOBEC3G peptide, primary screen, biochemical, TR-FRET, GST-Vif 1-94, biotin-A3G peptide, dose response retest (AID 1117319). TR-FRET GST-Vif / biotin-A3G peptide binding; higher % means a stronger effect; test concentration not given here; strong numbers were not always called active. inhibition, %, or IC50 in µM where a hit was titrated. hit rate 0.57% among 260,000;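 active = above the screen mean plus three standard deviations and confirmed in dose response; inconclusive = results disagree or hit not tested in dose response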;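 also: Vif residues 1-94 fused to GST binding biotinylated APOBEC3G peptide 110-148; 0% = full assay without inhibitor and 100% = GST in place of GST-Vif; retest series ran down from 100 µM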
FGF22 binding: shifts melting point of recombinant human FGF22; recombinant FGF22 thermal shift, SYPRO orange fluorescence; percent of sucrose octasulfate shift, DMSO zero; calls only at 9.99 µM; hit rate 1.5% among 340,000; AID 651658;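 active = melting point raised past a set limit in the mean and every replicate; inconclusive = no clear call; three in four hits are not shown here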
Target sequence (Q9HCT0 whole entry, looked up): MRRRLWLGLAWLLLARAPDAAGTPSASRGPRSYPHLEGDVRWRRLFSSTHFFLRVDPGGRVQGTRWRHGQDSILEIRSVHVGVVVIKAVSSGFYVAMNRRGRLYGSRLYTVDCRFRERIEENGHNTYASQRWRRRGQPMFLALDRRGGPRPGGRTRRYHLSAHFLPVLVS
Ecoli rRNA inh: selective bacterial rRNA inhibition in E. coli | E. coli WT GFP vs humanized-ribosome RFP mutants, fluorescence, 24 h; hits give low values; DMSO median 0, no signal -100 | GFP signal change (wild-type ribosome), % (concentration not given with the values) | hit rate 1.6% among 350,000 | AID 720706;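 active = significant combined selectivity score with lowered wild-type GFP, culture density cut under 30%, mutant RFP and density less affected; inactive = any of these conditions unmet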; also: one replicate is shown; some compounds called inactive have numbers as strong as hits
E coli growth: inhibitors of Escherichia coli growth | OD600, 23 h; hits give low values | OD600 absorbance (concentration not given with the values) | hit rate 0.21% among 330,000 | AID 1053175;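 active = OD600 absorbance below the run mean of sample wells minus 3.6 SD, in any replicate, cut at about 0.56 in these data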;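 also: stock transfer was 300 nL into about 60 µL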
ALR H2O2 inh: inhibitors of human sulfhydryl oxidase ALR | P55789 | purified ALR, DTT oxidation, H2O2 HRP-luminol luminescence | inhibition, % (test concentration not listed) | hit rate 3.8% among 290,000;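 active = mean and each replicate at 75% or more; inconclusive = only one of the two met; inactive = neither met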;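 also: stock transfer was 7.5 nL into about 7.5 µL; 0% = neutral wells and 100% = wells with inactivated enzyme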
Target sequence (P55789 whole entry, looked up): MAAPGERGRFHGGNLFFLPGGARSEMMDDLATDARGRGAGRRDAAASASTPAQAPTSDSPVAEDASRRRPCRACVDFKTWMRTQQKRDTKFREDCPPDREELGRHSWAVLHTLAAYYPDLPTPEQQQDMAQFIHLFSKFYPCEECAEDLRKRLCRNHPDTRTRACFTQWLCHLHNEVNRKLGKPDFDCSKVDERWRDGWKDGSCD
HNF4A DNA FP: change in binding of human HNF4 alpha to DNA | hit rate 0.3% among 360,000 | activity change, % at 10 µM | P41235 | HNF4a-FITC DNA binding, fluorescence polarization, 1 h | AID 1224865; in the data active = activity change above about 30%, passing the limit was not always enough;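 also: controls were the assay level and a saturating level of protein; the project sought stronger binding though the title names inhibitors; some compounds called inactive have numbers as strong as hits; positive values seem to mean higher polarization but the record does not say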
Ecoli rRNA inh OD600: second read-out of Ecoli rRNA inh, no call of its own (marks repeat the call); OD600 change, %; measured here: OD600 growth;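 optical density of the mix in the first replicate; 0 = DMSO median and -100 = no signal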
Ecoli rRNA inh RFP: further read-out of Ecoli rRNA inh, marked with its call; RFP signal change, %; measured here: RFP humanized mutant strains;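 first replicate; 0 = DMSO median and -100 = no signal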
The depositor's hits bear a star; i = inactive; ? = inconclusive; . = not tested or not shown; & = joins results of further samples. These rows are one share of the data; the hit share may differ from the screen's.

compound | AF4-AF9 inh | Vif TR-FRET | FGF22 binding | Ecoli rRNA inh | Ecoli rRNA inh OD600 | Ecoli rRNA inh RFP | E coli growth | ALR H2O2 inh | HNF4A DNA FP
CCOC(=O)Cc1csc(NC(=O)c2c(O)c3ccccc3n(CCC(C)C)c2=O)n1 | 2.5 | -7.0% | i | 0.6 | 15.6 | -3.7 | 0.695 | -11.7 | -0.3
N#Cc1cccc(-c2ccc([C@H]3[C@H](CO)N4CCCCN(C(=O)Cc5ccccc5)C[C@@H]34)cc2)c1 | -2.6 | . | i | -35.0 | -63.6 | 0.8 | . | . | .
C/C(=N\NC(N)=O)c1c(O)n(C)c(=O)n(C)c1=O | 1.0 | 7.4% | i | 16.4 | 13.1 | 1.9 | 0.668 | . | 0.2
COc1ccccc1C1=NCc2nnc(C)n2-c2ccc(Cl)cc21 | . | -3.5% | . | . | . | . | 0.696 | 0.7 | -0.7
O=C1Nc2cc(C(=O)N3CCC4(CC3)OCCO4)ccc2S/C1=C\c1ccccc1 | -6.8 | . | i | 7.4 | 8.6 | 2.2 | 0.67 | -15.8 | 0.4
CN1C(=O)C(=Cc2ccc(N3CCCCC3)o2)C(=O)N(C)C1=S | . | 1.2% | . | . | . | . | . | 0.6 | 133.5
COC(=O)C1=C(c2cccc(C#N)c2)C[C@@H]2CC[C@H]1N2C(=O)NCCO | 0.3 | . | i | 7.5 | 6.2 | 2.0 | . | -4.8 | 1.8
CC1=C(C/C(C)=C/c2ccccc2)/C(=C/CO)[C@@H]2OC(=O)O[C@]2(C)C12CC2 | -3.7 | . | i | -5.8 | 5.8 | -1.8 | . | -2.1 | 3.3
O=C1CN(O)C(c2ccccc2)=c2cc(Cl)ccc2=N1 | -1.0 | . | i | 4.5 | -0.9 | -3.4 | 0.638 | -9.8 | 0.2
CCN(CC)CCCN=Cc1c(O)n(Cc2ccc(F)cc2)c(=O)[nH]c1=O | . | 24.5% | . | . | . | . | 0.722 | 0.8 | 3.2
COC(=O)[C@H]1[C@H](CO)[C@H]2Cn3c(ccc(C4=CCCCC4)c3=O)[C@@H]1N2CC1CC1 | 0.9 | . | i | 1.5 | -3.2 | -2.6 | . | . | .
C=C(C)c1cccc(C(C)(C)NC(=O)NC2CN3CCC2CC3)c1 (stereo unspecified) | . | 6.3% | . | . | . | . | 0.648 | . | 4.3
CC(=O)OC1CC[C@@]2(C)C(=CC(=O)C3C4CCC(OC(C)=O)[C@@]4(C)CCC32)C1 (stereo partly specified) | -2.0 | . | i | 4.9 | 4.1 | 0.3 | 0.718 | -4.0 | 1.3
Clc1cnc(Oc2ccc(Oc3ncc(Cl)cc3Cl)cc2)c(Cl)c1 | 1.3 | -3.0% | i | 9.4 | 6.9 | -4.7 | 0.632 | -3.6 | 0.0
O=C1NC(=O)C2(CCCc3ccc(N(CCCl)CCCl)cc32)N1 (stereo unspecified) | 7.4 | -2.3% | i | 6.7 | 11.4 | -1.5 | 0.676 | . | -2.3

3 entries from above, sorted by number of heavy atoms, low to high.
compound | AF4-AF9 inh | Vif TR-FRET | FGF22 binding | Ecoli rRNA inh | Ecoli rRNA inh OD600 | Ecoli rRNA inh RFP | E coli growth | ALR H2O2 inh | HNF4A DNA FP
COC(=O)C1=C(c2cccc(C#N)c2)C[C@@H]2CC[C@H]1N2C(=O)NCCO | 0.3 | . | i | 7.5 | 6.2 | 2.0 | . | -4.8 | 1.8
CC(=O)OC1CC[C@@]2(C)C(=CC(=O)C3C4CCC(OC(C)=O)[C@@]4(C)CCC32)C1 (stereo partly specified) | -2.0 | . | i | 4.9 | 4.1 | 0.3 | 0.718 | -4.0 | 1.3
COC(=O)[C@H]1[C@H](CO)[C@H]2Cn3c(ccc(C4=CCCCC4)c3=O)[C@@H]1N2CC1CC1 | 0.9 | . | i | 1.5 | -3.2 | -2.6 | . | . | .

Next part
compound | AF4-AF9 inh | Vif TR-FRET | FGF22 binding | Ecoli rRNA inh | Ecoli rRNA inh OD600 | Ecoli rRNA inh RFP | E coli growth | ALR H2O2 inh | HNF4A DNA FP
CN1CCc2cc(O)cc3c2[C@H]1Cc1ccc(O)c(O)c1-3 | 18.3 | . | i | . | . | . | . | 98.5* | -0.7
COc1ccc(C(=O)C2CCCN(Cc3cnc(C)s3)C2)cc1OC (stereo unspecified) | 1.2 | 1.5% | i | 2.1 | 3.2 | -0.8 | 0.703 | -19.7 | 2.7
CC(C)[C@H](NC(=O)N1C[C@H]2C[C@@H](C1)c1cccc(=O)n1C2)C(=O)Nc1ccccc1F | -0.3 | . | i | . | . | . | 0.683 | -6.8 | 1.8
COC(=O)C1=C(c2cccc(OCc3ccccc3)c2)C[C@@H]2CC[C@H]1N2C(=O)NCc1ccc(C(F)(F)F)cc1 | 1.3 | . | i | 17.0 | 14.4 | -4.0 | . | -4.3 | -5.7
C=C1N2CCC(CC2)C1(O)c1ccc(C)c(C)c1 (stereo unspecified) | . | -11.3% | . | . | . | . | 0.705 | 1.5 | 0.2
Cc1ccccc1CCNCc1ccc(Br)cc1 | -1.6 | -2.6% | i | -1.5 | -12.8 | -1.6 | 0.631 | -8.9 | 0.4
CC(C)Oc1cccc(NC(=O)c2cccn(Cc3ccc4c(c3)OC(F)(F)O4)c2=O)c1 | . | 12.4% | . | . | . | . | 0.691 | -23.5 | -1.6
O=[N+]([O-])c1cccc(O)c1 | . | . | i | -0.7 | -0.5 | -1.3 | 0.66 | -14.0 | 0.6
CN(Cc1cccc(-c2cccnc2)c1)C(=O)Oc1ccc([N+](=O)[O-])cc1 | 8.8 | . | i | -28.8 | -23.8 | -5.3 | . | . | 1.3
O=C(COc1ccc(S(=O)(=O)N2CCCCC2)cc1)N1CCN(Cc2ccccc2)CC1 | . | 2.6% | . | . | . | . | 0.748 | -11.6 | 2.7
Cc1ccc(-c2nc3ccccc3c(=O)n2-c2ccccn2)cc1 | 3.9 | 0.3% | i | . | . | . | . | -6.0 | 23.4
O=C(NCC(c1cccnc1)N1CCN(c2ccc(F)cc2)CC1)Oc1ccccc1 (stereo unspecified) | ? | 2.5% | i | 4.2 | 2.8 | -0.2 | 0.75 | 48.8 | 0.7
Cc1ccc(Cl)cc1N1CCN(CCN)CC1 | . | 7.1% | . | . | . | . | 0.713 | 10.8 | -1.2
C=C1[C@H]2CC[C@H]3[C@]4(C)C[C@H](O[C@H]5O[C@H](CO)[C@@H](OS(=O)(=O)O)[C@H](OS(=O)(=O)O)[C@H]5OC(=O)CC(C)C)C[C@@H](C(=O)O)[C@H]4CC[C@]3(C2)[C@H]1O | 2.0 | . | i | . | . | . | . | -4.8 | 1.4
CC(C)CC(C)N (stereo unspecified) | . | . | i | -4.2 | 1.1 | 0.0 | . | -8.7 | -0.3
C=CCN1C(=O)C2(C(C(=O)OCC)=C(N)Oc3c2c(=O)oc2ccccc32)c2ccccc21 (stereo unspecified) | . | 2.5% | . | . | . | . | 0.707 | . | -1.5
N[C@@H](Cc1c[nH]c2ccccc12)c1nnc(SCc2c(F)cccc2Cl)o1 | . | -4.5% | . | . | . | . | 0.694 | -10.7 | -1.4
Cc1ccc(OCC(=O)N2CCN(Cc3cccnc3)CC2)cc1 | -5.2 | 7.1% | i | 13.1 | 5.6 | 0.4 | 0.675 | 2.8 | -2.1
Cc1cc(NC(=O)CCl)on1 | -0.2 | ? | i | 13.9 | 12.2 | 0.1 | 0.67 | -13.8 | -3.0
O=P(CCl)(Nc1ccccc1)C(Cl)(Cl)Cl (stereo unspecified) | -2.1 | -4.3% | i | 14.9 | 18.8 | -1.3 | 0.698 | -16.1 | 0.9
CCN1CCN(C(=O)COc2ccc(S(=O)(=O)N3CCOCC3)cc2Cl)CC1 | 0.8 | 2.5% | i | 0.6 | -4.3 | -1.3 | 0.671 | 3.6 | 0.7
CC(=O)N1CCN(CCN=Cc2c(O)n(-c3ccc(F)cc3)c(=S)[nH]c2=O)CC1 | -13.2 | 0.6% | i | 13.3 | 21.6 | 3.4 | 0.639 | 2.4 | -0.4
COC1CCC(OC2CC(C3(C)CCC4(CC(O)C(C)C(C(C)/C=C(\C)C(=O)C(C)CC(C)C(=O)O)O4)O3)OC3(OC(C4OC(O)(CO)C(C)CC4C)CC3C)C2C)OC1C (stereo unspecified) | 1.9 | -6.8% | i | . | . | . | . | . | 1.4
C[C@]12CC(=O)CC1CCC1C2CC[C@@]2(C)C1CC[C@@H]2O (stereo partly specified) | -0.4 | . | i | -26.4 | -33.7 | -3.7 | 0.691 | -0.5 | -37.5
Cc1ccc(S(=O)(=O)N(C)C)cc1NC(=O)C(C)[N+]12CCN(CC1)CC2 (stereo unspecified) | -2.4 | -0.9% | i | 5.5 | 8.0 | -0.8 | 0.666 | -10.8 | -0.7
Cc1cc(N2CCOCC2)nc2ccc(NC(=O)CCC(=O)N3CCC4(CC3)OCCO4)cc12 | . | 5.8% | . | . | . | . | 0.68 | -7.5 | 3.9
COc1ccc(OC(=O)N(C)C[C@H]2OCc3cnnn3CCCC(=O)N([C@@H](C)CO)C[C@H]2C)cc1 | -0.1&2.5 | . | i | 14.0&1.6 | 16.3&0.8 | 4.9&1.8 | . | . | -6.1
Nc1cc2nc3ccccc3nc2cc1N | -0.2 | 2.3% | i | -6.6 | 0.4 | -5.0 | 0.645 | -1.3 | -37.8
Cc1ccc(OCC(=O)N2CCN(C)CC2)c(Br)c1 | . | 32.4% | . | . | . | . | 0.72 | -21.2 | -2.8
O=C(Cc1ccccc1)OCCNC(=O)c1cccnc1 | . | 9.9% | . | . | . | . | 0.678 | -3.9 | -1.1
CCn1nc(-c2ccccc2)nc2c(=O)n(C)c(=O)nc1-2 | . | 21.2% | . | . | . | . | 0.613 | -71.1 | 1.6
CCC(=O)N1CC(=O)Nc2ccc(Cl)cc2C1c1ccc(F)cc1 (stereo unspecified) | . | -6.7% | . | . | . | . | 0.672 | -2.4 | 0.5
Cc1ccc(/C=C2/C(=O)NC(=O)N(CCc3ccc(F)cc3)C2=O)o1 | . | 17.8% | . | . | . | . | 0.775 | 7.0 | 0.9
CC1CCCN(C(=O)CN2C3CCC2CC(O)(c2ccc(F)cc2)C3)C1 (stereo unspecified) | -1.1 | 8.0% | i | 8.5 | 7.9 | 1.0 | 0.703 | -3.7 | -0.2
COc1ccc(OC)c(N2Cc3ccccc3C2=N)c1 | -7.4 | 12.1% | i | 10.5 | -0.3 | -3.8 | 0.669 | -2.9 | 3.2
CN(C)[C@@H]1C(=O)C(C(N)=O)=C(O)[C@@]2(O)C(=O)C3=C(O)c4c(O)ccc(Cl)c4[C@@](C)(O)[C@H]3C[C@@H]12 | 0.6 | . | i | -43.2 | -18.6 | -23.5 | . | -27.5 | 7.4
Cc1cc(-c2ccccc2)cc(C)[n+]1Cc1ccccc1 | -4.3 | . | i | 1.5 | 1.3 | -4.0 | 0.659 | 0.4 | 2.1
Oc1ccc(C2NCc3ccccc3-n3cccc32)cc1Cl (stereo unspecified) | 2.7 | -1.1%&4.3% | . | 0.2 | -7.5 | -0.9 | 0.627&0.667 | 46.9&-2.6 | 3.3&-3.5
O=C1NC(=O)C(CCc2ccncc2)(Cc2ccc3c(c2)OCO3)C(=O)N1CCc1ccccc1 (stereo unspecified) | . | 8.2% | . | . | . | . | 0.686 | -33.0 | -0.2
COC(=O)C1=C(c2cccc(C#N)c2)C[C@@H]2CC[C@H]1N2C(=O)NCCOc1ccccc1Cl | -3.8 | . | i | -7.7 | -8.8 | -7.9 | . | -4.2 | -0.2
